Bioassay records as filed in PubChem.
CapD inh: Bacillus anthracis CapD inhibitors, primary screen, biochemical, fluorescence intensity; purified CapD enzyme, fluorescence intensity read-out; hits give low values; some hits fall short of the stated cut; z-score (concentration not given with the values); hit rate 0.23% among 140,000; AID 492967, 2010;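 active = z-score under -4 in either of two replicates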;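 note: stock transfer was 100 nL into about 40 µL; score is relative to mean and spread of the plate; one replicate is shown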
AID504770: growth inhibition of E. coli YBA685, primary screen, V. cholerae RctB inhibitors; z-score (no concentration beside the values); hit rate 0.27% among 130,000; E. coli YBA685 rctB-dependent plasmid, OD600 growth, 3 h; hits give low values;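 active = z-score under -2 on both plates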;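 note: wells of about 30 µL received 100 nL stock; score is relative to mean and SD of the test wells; the first replicate is given; strong numbers were not always called active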
* marks the source's active call; other numbers are inactive results; i = inactive; x = no result given. Outcome played no part in choosing rows (roughly 0.39% active in at least one column).

SMILES	CapD inh	AID504770
CCN(CC)C(=O)N1CCc2cc(OC)c(OC)cc2C1c1cc2cc(C)ccc2n(C(=O)N(CC)CC)c1=O (configuration not stated)	x	0.3
Cc1nc(S(=O)(=O)Cc2ccccc2Cl)nc2c1CCC2	-0.16	-0.5
CNC(=S)N/N=C/c1cccnc1	-2	-0.5
COc1cccc(-c2csc(/C(C#N)=C\Nc3ccc(NC(C)=O)cc3)n2)c1	0.38	-0.5
COC(=O)C(Sc1c[nH]c2ccccc12)(C(F)(F)F)C(F)(F)F	0.17	-0.6
O=C(CCC(=O)c1cccs1)Nc1nnc(C2CC2)s1	x	-0.25
CCN(CC)c1ccc(C(=O)OCC(=O)NCc2ccccc2Cl)cc1	0.14	1.4
Cc1c2cnn(-c3ccccc3)c(=O)c2c(C)n1CCCC(=O)NC1CC1	-0.72	-0.75
O=S(=O)(NCc1csc(-c2cccs2)n1)c1cccs1	42	-0.6
Cc1c2cc(-c3cccs3)sc2nc2c(O)cc(=O)[nH]c12	0.42	0.85
CC(=O)N1CCc2cc(S(=O)(=O)NC(CC(C)C)C(=O)NCc3ccc(Cl)cc3)ccc21 (configuration not stated)	0.66	-0.55
N#Cc1ccc(-c2cccc(C(F)(F)F)c2)o1	0.075	-0.55
CC(=O)Nc1sc(C)nc1-c1ccccc1	0.26	-0.4
Cc1ccc(C(=O)NCC(=O)OC(C)(C)C)cc1	0.55	x
O=C(Nc1ccccc1I)C1CC(=O)N(c2ccccc2)C1 (configuration not stated)	0.26	-0.1
CC(C)CCn1c(=O)c2ccccc2n2c(COC(=O)c3ccc(S(=O)(=O)N(C)C)cc3)nnc12	x	0
CC1=CC(=O)N(c2nc(-c3ccc(Cl)cc3)cs2)C1=O	-2.2	-0.55
CCOc1ccccc1/C=N/NC(=S)NC	-1.3	x
O=C(CN1C(=O)/C(=C2\SC(=S)N(CCS(=O)(=O)O)C2=O)c2ccccc21)Nc1ccc(F)cc1	-0.83	x
CCC(=O)n1nc(-c2ccc(OC)cc2)nc1SC	x	-0.35
O=C(CSc1nc2ccccc2o1)OCc1cc(=O)oc2cc3c(cc12)CCC3	x	0.9
Cc1ccc(CN(C)C(=O)c2ccc(C)c(NC(=O)c3ccco3)c2)o1	x	-1.9
CCCOc1ccc(CCN)cc1Cl	x	-0.3
O=C(CC(Cc1ccccc1)C(=O)O)Nc1ccccc1 (configuration not stated)	0.02	1
CC1CCN(CN2CC(Cn3c4ccccc4c4ccccc43)OC2=O)CC1 (configuration not stated)	39	-0.2
COc1ccc(C(=O)COc2nc(-c3ccccc3)cc(C(F)(F)F)c2C#N)cc1	0.43	x
CCOC(=O)c1ccc(CC(=O)c2cc(CC)c(O)cc2O)o1	x	0.85
S=c1nc[nH]c2ccccc12	x	0.1
Cc1cc(C)n(CC(O)COc2cccc3ccccc23)n1 (configuration not stated)	2.8	0.25
COc1ccc(C(=O)N2CCC(Cc3ccccc3)CC2)cc1OC	-0.34	0.7

Part of the list above, field by field:
CC1=CC(=O)N(c2nc(-c3ccc(Cl)cc3)cs2)C1=O
  CapD inh = -2.2
  AID504770 = -0.55

CCOc1ccccc1/C=N/NC(=S)NC
  CapD inh = -1.3
  AID504770 = x

O=C(CN1C(=O)/C(=C2\SC(=S)N(CCS(=O)(=O)O)C2=O)c2ccccc21)Nc1ccc(F)cc1
  CapD inh = -0.83
  AID504770 = x

CCC(=O)n1nc(-c2ccc(OC)cc2)nc1SC
  CapD inh = x
  AID504770 = -0.35

Next section
SMILES	CapD inh	AID504770
Cc1sc2nc(CN3CCCC3)nc(N3CCC(C(N)=O)CC3)c2c1C	x	0.2
Brc1ccc(-c2csc(=NC3CC3)n2N=C2CCCC2)s1	x	0
CCS(=O)(=O)N1CCN=C1SCc1cccc(C)c1	-0.39	-1.2
CCOC(=O)CCCn1c(=O)c2cccn2c2ccccc21	-0.54	-0.85
Cc1cc(C)cc(NS(=O)(=O)c2ccc3c(c2)OCCN3C(=O)c2ccco2)c1	-0.24	0.55
CC1CCCC(NC(=O)CSc2ncccc2C(=O)O)C1C (configuration not stated)	x	0.9
O=C(N1CCCCC1)C1(c2ccccc2)CCOCC1	x	-0.3
COC(=O)CN(c1ccccc1)S(=O)(=O)c1ccc(OC)cc1	x	-0.05
CC1CCCC(C)N1CCNC(=O)Nc1ccc(Cl)cc1 (configuration not stated)	-0.15	1.3
Cc1cc(Cl)ccc1OC(C)C(=O)N/N=C/c1c(C)nn(-c2ccccc2)c1C (configuration not stated)	-0.36	x
CCOC(=O)Cn1c2ccc(F)cc2c2nc3ccccc3nc21	1.4	0.7
Cc1cc(C)nc(NS(=O)(=O)c2ccc(NC(=O)c3ccc(N4C(=O)CCC4=O)cc3)cc2)n1	x	-0.75
CCOc1ccc(NC(=O)CC2SC(=O)NC2=O)cc1 (configuration not stated)	-0.015	x
O=C(Nc1ccccc1C(=O)NCc1ccccc1)c1ccco1	x	-0.6
CC(C)(C)Cc1nc(-c2ccccn2)no1	-0.49	-1.2

Retrieved one by one from above, six records:
SMILES	CapD inh	AID504770
CCOC(=O)c1ccc(CC(=O)c2cc(CC)c(O)cc2O)o1	x	0.85
O=C(CN1C(=O)/C(=C2\SC(=S)N(CCS(=O)(=O)O)C2=O)c2ccccc21)Nc1ccc(F)cc1	-0.83	x
CC(=O)N1CCc2cc(S(=O)(=O)NC(CC(C)C)C(=O)NCc3ccc(Cl)cc3)ccc21 (configuration not stated)	0.66	-0.55
Cc1ccc(CN(C)C(=O)c2ccc(C)c(NC(=O)c3ccco3)c2)o1	x	-1.9
Cc1cc(C)n(CC(O)COc2cccc3ccccc23)n1 (configuration not stated)	2.8	0.25
COc1cccc(-c2csc(/C(C#N)=C\Nc3ccc(NC(C)=O)cc3)n2)c1	0.38	-0.5

Continued:
SMILES	CapD inh	AID504770
Cc1onc(-c2c(Cl)cccc2Cl)c1C1=NCCO1	0.76	0.2
CS(=O)(=O)NCCn1ccc2ccccc21	x	-0.1
COc1ccc(-c2cc(N)n[nH]2)c(OC)c1	-0.55	2.8
CC(C)(C)C(O)(CCc1ccccc1)Cn1cncn1 (configuration not stated)	x	-0.4
COc1ccc(NC2=CC(c3ccc(F)cc3)N(c3ccc(OC)cc3)C2=O)cc1 (configuration not stated)	-0.32	x
CCOC(=O)c1c(CNc2ccncc2)n(C)c2cc(Br)c(OC(C)=O)cc12	-0.19	x
COC(=O)c1cc(/C=C(\C#N)S(C)(=O)=O)cn1-c1ccc(Cl)cc1	1.2	0.85
CC1(C)CC(=O)C2=C(C1)N=C1c3ccccc3C(=O)C1C2c1cccc(Cl)c1Cl (configuration not stated)	-0.41	x
CC(C(=O)NCc1ccc2c(c1)OCO2)N(c1ccccc1)S(C)(=O)=O (configuration not stated)	x	-1.5
Cc1c(C(=O)NC(=S)Nc2ccc(C(=O)OC(C)C)cc2)oc2ccccc12	0.43	0.4
CC1=C(C(=O)Nc2nc3ccccc3s2)C(c2ccc(N(C)C)cc2)C2=C(CC(C)(C)CC2=O)N1 (configuration not stated)	1.1	x
CN(C)CCC(O)c1ccc(S(C)=O)cc1 (configuration not stated)	-0.21	x
O=C(NC(=S)Nc1ccc(Nc2ccccc2)cc1)c1ccco1	9.9	0.05
CC(C)(CC(=O)N1CCN(c2ncccc2C(F)(F)F)CC1)Sc1ccc(Cl)cc1	0.71	-0.05
COC(=O)c1cc2ccsc2n1CC(=O)Nc1ccc(OC)c(OC)c1	0.47	0.25
CCCOc1ccc(C2C3=C(CC(C)(C)CC3=O)Nc3ccccc3N2C(=O)CC)cc1OC (configuration not stated)	0.9	x
Cn1cc(/C=N/NC(=O)Cc2csc(-c3ccccc3)n2)c2ccccc21	3.5	x
CC(=O)N(Cc1ccccc1)Cc1cc2cc(C)ccc2n2nnnc12	x	-0.1
CCN(CC)C(=O)CN1C(=O)C2(Nc3ccccc3C(=O)N2Cc2ccccc2)c2ccccc21 (configuration not stated)	1	x
O=C(NCCN1CCN(Cc2ccccc2)CC1)Nc1ccc(OCc2ccccc2)cc1	1.2	0.65
c1ccc(CCC2CCNCC2)cc1	x	0.6
Cc1cccc(C2=N/C(=C\c3ccccc3OS(=O)(=O)c3ccccc3)C(=O)O2)c1	-0.21	x
NC(CC(=O)O)C1CC=CCC1 (configuration not stated)	0.15	-0.75
CC(C)(C)c1ccc(-c2nnc(-c3ccccc3NC(=O)CCC(=O)O)o2)cc1	81	-0.85
COc1ccc2nc(C)sc2c1	x	0.1
CC1=NNC(=O)C1CC(=O)N/N=C/C=C/c1ccccc1 (configuration not stated)	x	-0.25
Cc1ccc(N2CCN(C(=O)c3sc4nc5n(c(=O)c4c3C)CCCC5)CC2C)cc1 (configuration not stated)	0.13	0.55
COc1ccccc1N1CCN(c2nnc(C)c3ccccc23)CC1	-0.54	x
CC(=O)Nc1ccc2c(COC(=O)Cc3ccc4c(c3)OCCO4)cc(=O)oc2c1	x	-0.1
CCCN(C(=O)CCc1nc(-c2ccccc2F)no1)c1ccc(OCC)cc1	-0.24	1.2
COc1ccc(NS(=O)(=O)c2cccc(C(=O)O)c2)cc1	-0.51	-0.5
COC(=O)N1CC(=O)N(OCN2C(=O)c3ccccc3C2=O)C1c1ccccc1 (configuration not stated)	6.8	x
Cc1ccc(NC(=O)c2snnc2C)cc1	x	-1.2
Cc1cccc(-n2nnnc2C2(N=Cc3ccc(Cl)cc3Cl)CCCCC2)c1	-0.34	x
CN1C(=O)/C(=C/c2ccc(N3CCCC3)c(F)c2)C(=O)NC1=S	0.15	0.75
NC(=O)C1CCN(CC(O)CSc2ccccc2)CC1 (configuration not stated)	0.7	2
Cc1ccc(S(=O)(=O)Cc2ccc(C(=O)N3CCN(Cc4ccccc4)CC3)o2)cc1	-0.74	-0.55
O=c1[nH]cc(S(=O)(=O)N2CCC3(CC2)OCCO3)c(=O)[nH]1	x	1.6
Cc1cc(C)c(C(N)=O)c(NC(=O)Nc2cccc(C(F)(F)F)c2)n1	0.64	x
CN(C)C(=O)On1ccc2ccc(S(C)(=O)=O)cc21	-0.16	x
CC(NC(N)=O)C1CC2CCC1C2 (configuration not stated)	x	-2.4
COc1ccc(-c2nsc(SCC(=O)N3CCCC3)n2)cc1	6.7	1.5
O=C(Cc1ccccc1)NCC(=O)N1CCCCC1	-0.34	1.6
COc1ccc(C(=O)NCC(=O)O)cc1OC	i	-0.05
CC(=O)NC1C(OCc2ccccc2)OC2COC(c3ccccc3)OC2C1O (configuration not stated)	5.9	x
Cc1nc(C)c(-c2ccn[nH]2)o1	0.005	-0.35
CCOc1ccc(S(=O)(=O)N=C2C=CC(=O)C=C2)cc1	x	-0.9
O=C(CCCCCN1C(=O)C2C3c4ccccc4C(c4ccccc43)C2C1=O)OCC(=O)c1ccc(Br)cc1 (configuration not stated)	-0.31	x
Cn1nc(-c2ccccc2)c(C=Nc2ccc(F)c(Cl)c2F)c1Cl	0.55	x
Cc1ccc(Oc2ncccc2NS(=O)(=O)c2cn(C)c(C)n2)c2c1CCC2	0.035	-1.2
CCOC(=O)c1[nH]c(C)c(C(=O)N2CCc3ccccc32)c1C	0.7	0.95
CC(C)c1nc(N(C)S(C)(=O)=O)nc(-c2ccc(F)cc2)c1/C=C/[C@@H](O)C[C@@H](O)CC(=O)O	x	0.2
COc1cc(-c2nnc(NC(=O)CS(=O)(=O)c3ccc(Cl)cc3)o2)cc(OC)c1OC	x	-1.1
CCCN1C(=O)/C(=N\OCC(=O)N2CCC(C)CC2)c2ccccc21	x	-0.35
Cc1noc(NS(=O)(=O)c2ccc(NC(=O)c3ccncc3)cc2)c1C	1.6	-0.2
CC1(C)Cc2ccccc2C(c2sc3nc4c(cc3c2N)CCCCC4)=N1	-0.53	-0.95
CCCc1cc(=O)[nH]c(SCC(=O)N2CC(=O)Nc3ccccc32)n1	x	0.35
O=C(CSc1nncn1-c1ccccc1)Nc1c(F)c(F)c(F)c(F)c1F	-0.51	-0.75
CCN(CCNC(=O)c1ccc(OC)cc1)c1cccc(C)c1	0.58	x
OC1(c2ccccc2)CC2CCC(C1)N2c1ncccn1 (configuration not stated)	19	-0.15

Next section:
SMILES	CapD inh	AID504770
ON=C1C2CC3CC(C2)CC1C3	0.03	0.15
CCOC(=O)c1ccc(-n2c(N)c(C(=O)N3CCCC3)sc2=S)cc1	-0.45	-1.1
CCOC(=O)C(C)Oc1ccc(OCc2ccccc2)cc1 (configuration not stated)	-0.21	-0.45
Cc1cc(-c2cc3ccccc3oc2=O)nc2c1c(=O)oc1ccccc12	1.7	x
COc1ccc(O)c(C(=O)c2cnc3nc4ccccc4n3c2)c1	x	-0.3
O=C(c1ccccc1O)N1N=C(c2cccnc2)CC1(O)C(F)(F)F (configuration not stated)	-0.35	x
CN(C)c1nc2ccc(OCCN3CCCCC3)cc2s1	x	0
Cn1sc(=Nc2ccccc2)nc1-c1ccccc1	0.14	-0.1
Cc1ccc(S(=O)c2snnc2-c2ccc(Cl)cc2Cl)cc1 (configuration not stated)	0.39	x
CN(Cc1ccccc1)C(=O)Cn1c(=O)c2cccn2c2cccnc21	19	0.25
CCN(CC)c1ccc2cc(C(=O)Nc3cccc(C(F)(F)F)c3)c(=N)oc2c1	-0.18	x
CCn1cc(C(=O)Nc2ccc(CC#N)cc2)c(C)n1	-0.17	-1.6
CCCc1ccc(S(=O)(=O)N2CCC(c3ccc(=O)n(-c4ccccc4)n3)CC2)cc1	4.7	-0.55
NC(=O)C1CCCCN1C(=O)CCCc1c[nH]c2ccccc12 (configuration not stated)	x	-0.45
COc1ccc(/C=C2/C(=O)N(c3ccc(Cl)c(Cl)c3)N=C2C)cc1	-0.58	x
CC(=S)/C=C1\Sc2ccccc2N1C	-5.3*	-0.7
O=C(O)C(CO)N1Cc2ccccc2C1=O (configuration not stated)	0.46	0

3 of these compounds, set out differently:
structure,CapD inh,AID504770
ON=C1C2CC3CC(C2)CC1C3,0.03,0.15
CCOC(=O)c1ccc(-n2c(N)c(C(=O)N3CCCC3)sc2=S)cc1,-0.45,-1.1
Cc1ccc(S(=O)c2snnc2-c2ccc(Cl)cc2Cl)cc1 (configuration not stated),0.39,x
